High-throughput results deposited in PubChem by several laboratories.
UCH37 inh: inhibitors of human UCH37 deubiquitinase, primary screen, biochemical, Ub-AMC cleavage, fluorescence; Ubiquitin carboxyl-terminal hydrolase isozyme L5 (Homo sapiens), Q9Y5K5; purified proteasome/UCH37; inhibition, % (test concentration not listed); 330,000 compounds, 0.33% hits;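 active means mean of two replicates above 20%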;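 further: 0% = compound-free wells with enzyme and 100% = wells lacking proteasome; stock transfer was 100 nL into about 20 µL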
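Material: human UCH37 enzyme supplied as purified proteasome complex. Measure: % inhibition of Ub-AMC cleavage fluorescence. Medium: pH 7.4 Tris-HCl (50 mM) with ovalbumin, ATP-MgCl2, DTT. Times: 30 min preincubation with enzyme, 25 min cleavage at room temperature. Detection: AMC fluorescence intensity at 355/460 nm.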
Beta2AR agonist: beta2AR agonists driving receptor internalization, primary screen, cell-based, FAP fluorogen, flow cytometry. Beta-2 adrenergic receptor (Homo sapiens), P07550. Am2.2-beta2AR cells; reference of the scale not given here. response, % (concentration not given with the values). 340,000 compounds, 0.43% hits;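 active means response above a set limit, near 3 SD of response in nonfluorescent compounds, cut at about 42% in these data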;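 further: stock transfer was 100 nL into about 11 µL; a reference agonist was the positive control; negative values mostly stem from fluorescent compounds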
Target sequence (P07550 whole entry, looked up): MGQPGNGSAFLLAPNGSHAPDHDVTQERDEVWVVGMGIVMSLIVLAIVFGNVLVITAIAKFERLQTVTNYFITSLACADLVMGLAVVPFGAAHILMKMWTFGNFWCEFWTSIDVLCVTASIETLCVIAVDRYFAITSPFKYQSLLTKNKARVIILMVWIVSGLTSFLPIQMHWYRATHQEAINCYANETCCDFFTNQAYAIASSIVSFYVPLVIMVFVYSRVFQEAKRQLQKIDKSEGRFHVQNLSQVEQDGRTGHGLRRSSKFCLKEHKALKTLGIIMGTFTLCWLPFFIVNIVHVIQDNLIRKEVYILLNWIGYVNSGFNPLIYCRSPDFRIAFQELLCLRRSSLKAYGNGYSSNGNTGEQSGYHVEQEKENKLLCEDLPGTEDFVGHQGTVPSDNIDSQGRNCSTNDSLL
rRNA inh HTS: reduced GFP signal of wild-type E. coli, primary screen, bacterial rRNA inhibitor project, GFP/RFP fluorescence, OD600, single point | E. coli WT GFP vs humanized-ribosome RFP mutants, 24 h; active compounds read low; DMSO median 0, no signal -100 | GFP signal change (wild-type ribosome), % (concentration not given with the values) | 350,000 compounds, 1.6% hits | AID 720706, 2013;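 active means significant combined selectivity score with lowered wild-type GFP, culture density cut under 30%, mutant RFP and density less affected; inactive means any of these conditions unmet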; further: one replicate is shown; some compounds called inactive have numbers as strong as hits
HNF4A DNA FP: change in binding of human HNF4A to DNA, primary screen, biochemical, fluorescence polarization, FITC-DNA; Hepatocyte nuclear factor 4-alpha (Homo sapiens), P41235; 1 h; activity change, % at 10 µM; 360,000 compounds, 0.3% hits; AID 1224865, 2016; in the data active means activity change above about 30%, passing the limit was not always enough;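 further: controls were the assay level and a saturating level of protein; the project sought stronger binding though the title names inhibitors; some compounds called inactive have numbers as strong as hits; positive values seem to mean higher polarization but the record does not say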
Target sequence (P41235 whole entry, looked up): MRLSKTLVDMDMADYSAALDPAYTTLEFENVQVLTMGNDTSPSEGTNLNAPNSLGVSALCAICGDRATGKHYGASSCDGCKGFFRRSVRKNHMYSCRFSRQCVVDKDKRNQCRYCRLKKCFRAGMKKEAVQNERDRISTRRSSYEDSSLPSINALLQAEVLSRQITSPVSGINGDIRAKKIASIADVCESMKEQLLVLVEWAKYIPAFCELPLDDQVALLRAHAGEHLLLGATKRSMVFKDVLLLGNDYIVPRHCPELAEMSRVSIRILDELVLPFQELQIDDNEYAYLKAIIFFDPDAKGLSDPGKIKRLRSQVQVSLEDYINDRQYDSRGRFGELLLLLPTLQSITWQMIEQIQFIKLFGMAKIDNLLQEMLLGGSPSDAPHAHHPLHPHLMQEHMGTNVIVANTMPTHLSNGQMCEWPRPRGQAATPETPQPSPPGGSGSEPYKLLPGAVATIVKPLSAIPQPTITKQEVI
E coli growth: E. coli growth inhibition, primary screen, OD600. Escherichia coli growth, 23 h; active compounds read low. OD600 absorbance (test concentration not listed). 330,000 compounds, 0.21% hits;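 active means OD600 absorbance below the run mean of sample wells minus 3.6 SD, in any replicate, cut at about 0.56 in these data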;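 further: stock transfer was 300 nL into about 60 µL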
ALR H2O2 inh: inhibitors of human ALR sulfhydryl oxidase, primary screen, biochemical, H2O2 detection, HRP-luminol luminescence, single point. FAD-linked sulfhydryl oxidase ALR (Homo sapiens), P55789. purified ALR, DTT oxidation. inhibition, % (concentration not given with the values). 290,000 compounds, 3.8% hits;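 active means mean and each replicate at 75% or more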;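 further: stock transfer was 7.5 nL into about 7.5 µL; 0% = neutral wells and 100% = wells with inactivated enzyme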
Target sequence (P55789 whole entry, looked up): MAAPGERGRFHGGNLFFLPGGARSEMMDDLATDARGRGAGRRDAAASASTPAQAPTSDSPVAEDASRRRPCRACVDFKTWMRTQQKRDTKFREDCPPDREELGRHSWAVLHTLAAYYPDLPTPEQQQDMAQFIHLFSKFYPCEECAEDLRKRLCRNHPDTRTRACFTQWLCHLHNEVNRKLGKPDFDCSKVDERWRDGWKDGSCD
FGF22 binding: binders of human FGF22 protein, primary screen, FGF22 synaptogenesis inhibitor project, biophysical, thermal shift, single point. Fibroblast growth factor 22 (Homo sapiens), Q9HCT0. recombinant FGF22 thermal shift, SYPRO orange fluorescence; percent of sucrose octasulfate shift, DMSO zero. calls only at 9.99 µM. 340,000 compounds, 1.5% hits;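 active means melting point raised past a set limit in the mean and every replicate; three in four hits are not shown here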
rRNA inh HTS OD600: also measured in rRNA inh HTS; calls as there; OD600 change, %; measured here: OD600 growth;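 optical density of the mix in the first replicate; 0 = DMSO median and -100 = no signal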
rRNA inh HTS RFP: second read-out of rRNA inh HTS, no call of its own (marks repeat the call); RFP signal change, %; measured here: RFP humanized mutant strains;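 first replicate; 0 = DMSO median and -100 = no signal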
An asterisk follows results filed as active; i = inactive; nt = no result given; + = active, no number; & = joins results of further samples. A portion of the library; the hit share may differ from the screen's.

SMILES	UCH37 inh	Beta2AR agonist	rRNA inh HTS	rRNA inh HTS OD600	rRNA inh HTS RFP	HNF4A DNA FP	E coli growth	ALR H2O2 inh	FGF22 binding
O=C(O)[C@H]1CCCC[C@H]1C(=O)Nc1ccc(Nc2ccccc2)cc1	-1.3	-1	nt	nt	nt	0.0	0.71	98*	nt
COCCN1C(=O)CN(S(C)(=O)=O)CC1(C)C(=O)NC(C)C (configuration not stated)	nt	nt	7	13	-4.0	4.1	nt	nt	i
CCC(=O)Nc1cccc(C2=NOC3(C2)C[C@H](C(N)=O)N(C(=O)c2ccc(Cl)cc2)C3)c1 (some centres not stated)	3.1	-11	7	13	8.3	-2.0	nt	-5	i
O=S(=O)(NN=C1CCCCCC1)c1ccc(Cl)cc1	2.7	-7	8	12	-0.9	-1.8	0.74	3	i
COCOc1ccc(-c2oc3c(C/C=C(\C)CCC=C(C)C)ccc(O)c3c(=O)c2OCOC)c(OCOC)c1	9.4	nt	nt	nt	nt	-3.5	0.76	-5	nt
CCN(CC)CC(=O)c1c[nH]c2ccccc12	-2.6	-4	nt	nt	nt	-2.6	0.75	-9	nt
CN(C[C@H](Cc1ccccc1)N(C[C@H](Cc1cccc2ccccc12)N(CCc1ccccc1)N=O)N=O)N=O	1.1	-1	17	20	32	1.0&2.4	nt	0	i
CCOC(=O)N1CCC(N(CCN(C)C)C(=S)Nc2cc(C)cc(C)c2)CC1	2.4	8	3	-2	-2.9	3.0	0.69	-9	i
O=CNc1c(Cl)cc2c(c1Cl)Cc1cc([N+](=O)[O-])ccc1-2	3.8	7	-9	-11	-2.0	5.5	0.66	nt	i
Cc1cccc(-n2nnc3cnn(C)c3c2=O)c1	5.1	6	nt	nt	nt	0.5	0.78	nt	nt
CCOC(=O)[C@]12CCCC=C1N(Cc1ccco1)C(=O)[C@H](CC(=O)NCC1CCCCC1)C2	nt	nt	-28	-32	-4.2	-1.0	nt	nt	i
O=C(CN1CCOCC1)Nc1nc2ccc(Cl)cc2s1	4.4	0	-8	-1	-8.3	3.4	0.7	-8	i
O=C(COC(=O)c1cccc(NC(=O)c2ccco2)c1)c1ccc(Br)cc1	5.0	-8	nt	nt	nt	2.4	0.72	-15	nt
O=C(NNC(=O)c1cc(OCC(F)(F)F)ccc1OCC(F)(F)F)c1ccc(Cl)c(Cl)c1	2.8	-9	nt	nt	nt	3.5	0.77	-2	nt
O=C(C1CCCN(Cc2ccc(Cl)cc2)C1)N1CCCCC1 (configuration not stated)	5.2	-3	12	-12	1.0	-2.1	0.71	-2	i
Cc1ccc(C(C(=O)NC2CCCC2)N(C(=O)c2csnn2)c2cccc(F)c2)o1 (configuration not stated)	7.0	3	4	-3	1.3	1.6	0.67	-12	i
O=C(CCSc1nnc(-c2ccco2)o1)Nc1ccccc1	1.8	-3	nt	nt	nt	-3.7	0.75	-13	nt
O=C(O)CC/C(=N/NC(=O)CNC(=O)Cc1ccc(Cl)cc1)c1ccccc1	nt	-3	6	5	-0.8	2.8	nt	2	i
CCOC(=O)c1cccc(NC(=O)CCn2cccc2)c1	2.5	15	nt	nt	nt	4.3	0.68	nt	nt
COC(=O)COc1ccc(/C=N/NC(=O)c2ccc(N(Cc3ccccc3)S(C)(=O)=O)cc2)cc1	nt	31	5	13	-1.9	-1.8	nt	-7	i
CCN(CC)C(=O)c1cccc2c1C(=O)c1ccccc1-2	1.1	1	nt	nt	nt	-2.9	0.71	-13	nt
O=C(NCCc1ccc(F)cc1)c1ccncc1	0.8	-2	2	-11	-0.9	0.8	0.68	-1	i
CCCOc1cccc(/C=N/NC(=O)c2csc(C)c2C)c1	nt	-17	nt	nt	nt	-1.9	nt	-3	nt
CCC(=O)Nc1nc(C)c(-c2csc(Nc3ccccn3)n2)s1	-7.7	5	-43	-57	-9.8	-1.4	0.68	nt	+
CCOc1ccc(NCc2cc3cc(OC)ccc3[nH]c2=O)cc1	0.1	11	-3	3	0.4	1.7	0.71	24	i
(more compounds)
SMILES	UCH37 inh	Beta2AR agonist	rRNA inh HTS	rRNA inh HTS OD600	rRNA inh HTS RFP	HNF4A DNA FP	E coli growth	ALR H2O2 inh	FGF22 binding
CC(C)(C)c1ccc(NC(=O)Nc2ccc3ccccc3n2)cc1	4.8	1	11	15	0.1	-1.3	0.71	-6	i
Cc1cc(C)n2c(Nc3ccc4c(c3)OCCO4)c(CCc3ccccc3)nc2n1	nt	nt	-4	-24	3.7	0.8	nt	nt	i
COc1ccc(N2CCOCC2)c(NC(=O)c2ccco2)c1	2.1	-8	-4	-2	-1.1	-1.3	0.62	11	i
CN(C)c1ccc(C(=S)N2CCN(C(=S)Nc3cccc4ccccc34)CC2)cc1	2.6	16	-6	-4	-9.7	-2.7	0.73	nt	i
O=C(NCC(=O)N1CCCCCCC1)c1ccccc1Br	4.6	-2	14	10	1.8	4.3	0.67	6	i
COc1ccc(CC(=O)Nc2c(C(N)=O)oc3ccccc23)cc1	1.6	0	0	4	4.7	-0.7	0.72	0	i
Clc1ccc(NN(Cc2ccncc2)c2ccc(Cl)cc2)cc1	nt	nt	-43	-67	-12	2.9	nt	nt	i
COc1ccc(C2=NOC(CNC(N)=S)C2)cc1 (configuration not stated)	1.2	-4	-21	-35	2.3	1.1	0.67	3	i
COc1cccc(C2CC(=O)Nc3cc(C)c(C)cc32)c1 (configuration not stated)	nt	nt	1	16	-0.2	11	nt	nt	i
CSc1ccccc1NC(=O)COc1nsnc1N1CCOCC1	0.7	-3	-4	-11	3.6	2.1	0.69	-6	i
C=CCN(C/C(=N\O)c1sc(C(=O)OCC)nc1C)c1cccc(Br)c1	nt	31	nt	nt	nt	-4.0	nt	-2	nt
Cc1nn(Cc2ccc(C(=O)N3CCCC3)o2)c(C)c1[N+](=O)[O-]	5.3	-9	10	4	1.1	-4.1	0.68	nt	i
CCCCn1c(CCNC(=O)CC)nc2ccccc21	5.0	-4	0	-1	-2.6	2.2	0.73	-2	i
CC(=O)c1ccc(N2CCN(C(=O)c3cccs3)C(C)C2)c(F)c1 (configuration not stated)	3.9	3	-22	-23	-3.1	3.2	0.71	-24	i
COc1ccc(NC(=O)CCCNC(=O)Cn2cnc3sc(C)c(C)c3c2=O)c(OC)c1	0.7	-2	5	14	0.5	2.8	0.64	-4	i
COc1ccc(C2NC(=O)NC(C)=C2[N+](=O)[O-])cc1OC (configuration not stated)	10	1	5	8	4.3	3.9	0.68	10	i
CCOc1ncccc1C(=O)Nc1ccc(S(=O)(=O)N2CC(C)CC(C)C2)cc1 (configuration not stated)	-0.5	8	1	5	-2.7	-0.1	0.7	3	i
COc1ccc(NC(=O)C(Cc2ccccc2)n2cccc2)cc1OC (configuration not stated)	2.5	-1	-4	-8	-2.7	-0.5	0.68	1	i
NNC(=O)c1cccn(Cc2cccc(C(F)(F)F)c2)c1=O	2.6	-10	1	-2	2.2	1.1	0.66	9	i
COc1cccc(CN2C(=O)C(C)Oc3ccccc32)c1 (configuration not stated)	1.5	5	-16	-6	0.6	0.9	0.72	nt	i
CC(C)(C)c1ccc(S(=O)(=O)N2CCCCC2)cc1	2.3	7	nt	nt	nt	1.8	0.7	-3	nt
CCOC(=O)c1c(C)nc2sc(C(=O)Nc3ccccc3)c(N)c2c1-c1ccc(OC)cc1	-19	-5	nt	nt	nt	2.8	0.75	-19	nt
CN(CC(=O)NCc1ccco1)CC(=O)Nc1c(Cl)cccc1Cl	1.1	-4	nt	nt	nt	3.0	0.71	13	i
COc1ccc(-c2cc(C(F)(F)F)c(C#N)c(SCC(=O)Nc3ccc(C)cc3)n2)cc1	-64	5	nt	nt	nt	2.7	0.68	4	nt
Cc1ccccc1NC(=O)c1ccccn1	0.8	7	9	3	-0.7	2.7	0.7	0	i
Additional compounds follow.
SMILES	UCH37 inh	Beta2AR agonist	rRNA inh HTS	rRNA inh HTS OD600	rRNA inh HTS RFP	HNF4A DNA FP	E coli growth	ALR H2O2 inh	FGF22 binding
N=c1c(S(=O)(=O)c2ccc(Cl)cc2)cc2c(=O)n3ccccc3nc2n1Cc1cccnc1	-5.5	14	nt	nt	nt	-21	0.71	-4	nt
CCN(c1ccccc1)C1(O)C(=O)c2ccccc2C1=O	2.6	-1	14	8	1.9	-2.4	0.68	95*	i
Cc1[nH]c2ccccc2c1C(=O)CSc1cccc[n+]1[O-]	4.0	-1	-6	6	6.0	-2.3	0.62	-4	i
COc1c(N2CCN(C(=S)Nc3ccc(F)cc3)C(C)C2)c(F)cc2c(=O)c(C(=O)O)cn(C3CC3)c12 (configuration not stated)	-12	6	nt	nt	nt	-0.6	0.073*	-7	nt
O=C(Nc1ccc(F)cc1)c1ccc(Br)c(S(=O)(=O)N2CCOCC2)c1	1.6	11	-5	-12	3.5	-0.6	0.6	nt	i
Nc1nnnn1CC(=O)N/N=C/C=C/c1ccccc1	nt	-5	3	11	1.8	-1.6	nt	-16	i
O=S(=O)(c1ccc(Br)cc1)N1CCCc2ccccc21	1.5	8	0	-7	-2.5	0.3	0.64	-3	i
C=CCOc1ccc(-c2nc3c(c(=O)[nH]c(=O)n3CCCC)n2C)cc1OC	nt	-3	19	9	0.9	-3.2	nt	-5	i
O=C1CC(=O)N2CCSC2=N1	-0.7	0	11	11	-2.6	-2.3	0.67	nt	nt
CCCOc1ccc(S(=O)(=O)N2CCN(C)CC2)c2ccccc12	4.5	-12	-2	-21	6.7	-3.5	0.65	-4	i
O=C(CCc1nnc2ccc(N3CCCC3)nn12)Nc1ccc(F)cc1F	-5.8	-11	8	9	1.1	-2.2	0.67	nt	i
COc1cc2c(cc1NC(=O)c1ccccc1F)CCCC2	4.4	24	nt	nt	nt	-0.6	0.67	50	nt
COc1ccc(CCNC(=O)COc2ccc(N(C)S(=O)(=O)c3ccc(Cl)cc3)cc2)cc1	3.9	5	8	11	2.3	0.2	0.7	nt	nt
O=C(c1cc2ccc([N+](=O)[O-])cc2oc1=O)N1CCOCC1	1.3	-1	16	16	1.0	-1.4	0.68	-2	i
CC(=O)CCc1ccc(OCCCCN2CCC(Cc3ccccc3)CC2)cc1	0.7	-14	-15	-5	-3.3	0.4	0.67	-4	i
CCOc1ccc(-c2noc(-c3csc([C@@H]4C[C@H](O)[C@@H](CO)O4)n3)n2)cc1	nt	nt	-5	-2	-0.4	0.1	nt	nt	i
Cc1nn(-c2nc3ccccc3[nH]2)c(N)c1-c1ccccc1	5.8	2	nt	nt	nt	4.8	0.69	4	nt
CCOc1ccc(CC(=O)Nc2sc(Cc3ccccc3)c(C)c2C(N)=O)cc1OCC	-3.7	5	nt	nt	nt	11	0.69	-11	nt
CCN(CCO)Cc1csc2ccc(Br)cc12	2.2	-11	nt	nt	nt	2.3	0.68	4	nt
CCn1c(CCCNC(=O)c2ccc(F)cc2)nc2ccccc21	5.8	-8	-5	1	-4.9	-0.4	0.71	28	i
COc1ccccc1N=c1c2c([N+](=O)[O-])cc([N+](=O)[O-])cc2n(O)n1-c1ccccc1OC	2.8	nt	nt	nt	nt	nt	0.67	-8	nt
